# HPGD block: qHTS Assay for Inhibitors of HPGD (15-Hydroxyprostaglandin Dehydrogenase); Potency, µM, for inactives: at the highest dose activity change, negative = inhibition, actives largely listed as inhibitors; hit rate 4.3% among 150,000; purified HPGD, NADH fluorescence kinetic, PGE2 substrate; 15-hydroxyprostaglandin dehydrogenase [NAD(+)] (Homo sapiens), P15428; AID 894, 2007; active = well fitted inhibition curve with a large enough effect (not every such curve was filed as active); inconclusive = small, poorly fitted or top-dose-only effect, or another doubt; inactive = no such curve, though single readings can be large or run the other way;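 note: top concentration of the series not given in the record; plate controls included wells without enzyme; inactives centre near -10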
# Target sequence (P15428 whole entry, looked up): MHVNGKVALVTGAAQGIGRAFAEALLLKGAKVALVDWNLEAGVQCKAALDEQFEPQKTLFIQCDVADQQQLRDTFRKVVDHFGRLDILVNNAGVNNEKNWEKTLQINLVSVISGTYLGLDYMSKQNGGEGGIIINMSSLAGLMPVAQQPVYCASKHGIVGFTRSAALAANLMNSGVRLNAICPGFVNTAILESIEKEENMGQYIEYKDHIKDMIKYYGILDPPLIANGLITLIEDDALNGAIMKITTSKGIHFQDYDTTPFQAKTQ
#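 20 nM HPGD preincubated 15 min at room temperature with compound in 50 mM Tris-HCl pH 8, 0.01% Tween 20. Started with 1 mM NAD+ and 30 uM prostaglandin E2; NADH fluorescence (360/450 nm) read 5 times over 30-s intervals, last minus first.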
# Numbers without * were called inactive; ? = inconclusive; & = joins results of further samples; [ ] = remark or other dose. % is set by controls: 0 for no effect and ±100 for the full control effect; potency is the fitted concentration of half-maximal effect.
SMILES | HPGD block
Cn1c2ccccc2c2nn(-c3ccccc3)c(=O)cc21 | -15.6%
O=C(c1ccco1)N1CCN(C(c2ccccc2)c2nnnn2C2CCCC2)CC1 (stereo not drawn) | -7.3%
CC(=O)N1CCN(c2ccc(OCC3CO[C@@](Cn4ccnc4)(c4ccc(Cl)cc4Cl)O3)cc2)CC1 (stereo partly drawn) | -1.9%
CS(=O)(=O)Nc1ccccc1C(=O)N1CCCC1 | 3.6%
CCOc1ccc(S(=O)(=O)N(C)c2ccc(OCC(=O)N3CCOCC3)cc2)cc1 | -9.7%
O=C(CSc1nnc(-c2n[nH]c3ccccc23)n1-c1ccccc1)Nc1cccc(Cl)c1 | -9.8%
O=C(CCl)NNc1cccc(Cl)n1 | 28.2µM*
CCOP(=O)(c1ccccc1)C(O)c1ccc(F)cc1 (stereo not drawn) | -6.4%

# Next entries follow:
SMILES | HPGD block
Cc1ccc(S(=O)(=O)N/N=c2\oc3ccccc3cc2C(=O)Nc2cccc(C)c2)cc1 | -12.5%
COc1cccc(NC(=O)C2CCN(Cc3cnn(-c4ccccc4)c3-n3cccc3)CC2)c1 | -14.4%
COc1ccc(CNC(=O)c2cc3c(=O)n4ccccc4nc3n(Cc3cccnc3)c2=N)cc1 | ?
C=C(C)c1cccc(C(C)(C)NC(=O)NC(c2ccccc2)c2ccc(OC)cc2)c1 (stereo not drawn) | -6.3%
NS(=O)(=O)c1ccc(NCc2cnc3ccccc3c2)cc1 | -2.8%
Nc1ccccc1C#Cc1ccccc1 | ?
CC(C)(C)c1cc(NC(=O)C2CCCO2)no1 (stereo not drawn) | -10.8%
C=CCn1c(SCc2nc3ccccc3nc2C)nnc1-c1ccoc1C | 25.1µM*

# Carrying on:
SMILES | HPGD block
O=C(Oc1ccc2c(=O)c(Cl)coc2c1)c1cccnc1 | -21.4%
COc1ccc(/C=N/NC(=O)c2ccc3ccccc3c2)cc1OS(=O)(=O)c1ccc(NC(C)=O)cc1 | ?
Cc1ccc(S(=O)(=O)N(CC(O)CN2CCOCC2)c2cc(Cl)ccc2Cl)cc1 (stereo not drawn) | ?
Cc1ccc(-c2ccc(/C=C/C(=O)c3ccccc3)o2)cc1 | 14.1µM*
O=C1CN(c2nnnn2-c2ccccc2)CCN1 | -11.2%
CCOC(=O)c1sc(N)c(C#N)c1COC(=O)CNC(=O)c1cc(OC)c(OC)c(OC)c1 | -17.6%
Cc1csc(NC(=O)C2CCCO2)n1 (stereo not drawn) | -1.0%
Cc1ccc(S(=O)(=O)N/N=C\c2ccc([N+](=O)[O-])o2)cc1 | -19.2%

# Next part.
SMILES | HPGD block
Nc1ncnc2c1ncn2CCCCC(=O)O | -4.6%
CCCc1nc2oc(C(=O)c3ccccc3)c(N)c2c2c1COC(C)(C)C2 | -15.8%
Cc1ccc(-c2nn3c(C)nnc3s2)cc1NC(=O)c1ccc(OC(C)C)cc1 | 1.12µM*
COC(=O)c1nnn(Cc2ccccc2)c1N | -4.0%
COc1ccc(CCNC(=O)CSc2nc(-c3ccco3)cc(C(F)(F)F)n2)cc1 | -17.7%
CCCCN(NC(C)=O)c1nc(Cl)nc(NC(C)C)n1 | -7.3%
CCN(CC)C(=O)CC1(c2ccccc2OC)CCOC(C(C)C)C1 (stereo not drawn) | 0.2%
Cc1cc(C)cc(NS(=O)(=O)c2ccc3oc(=O)ccc3c2)c1 | -10.0%

# More structures follow:
SMILES | HPGD block
COc1ccc(OC)c(N=Cc2c(O)[nH]c3ccccc23)c1 | -12.7%
CCOC(=O)c1cccc(NC(=O)c2cccs2)c1 | -15.9%
Cc1onc(-c2ccccc2Cl)c1C(=O)OCC(=O)Nc1ccc2c(c1)OCO2 | -7.4%
Cc1sc(=NC(=O)c2ccco2)n(C)c1-c1ccccc1 | -4.9%
CCOC(=O)C1CCc2nc3ccccc3c(=O)n21 (stereo not drawn) | 1.3%
C=C(C[C@]1(C(=O)OC)CC2(CC=C(C)C)C(=O)C(C(=O)CC(C)C)=C(O)C(CC=C(C)C)(C1)C2=O)C(=O)OC (stereo partly drawn) | -12.2%
COc1ccc(NC(=O)C(NC(=O)c2ccc(=O)[nH]c2)c2ccc(OC)cc2)cc1 (stereo not drawn) | -7.8%
COCCN(C(=O)CNC(=O)c1ccco1)C(C(=O)NC1CCCCC1)c1cccs1 (stereo not drawn) | -7.2%

# (continued)
SMILES | HPGD block
CCOC(=O)CSc1nnc(-c2cccnc2)o1 | -13.7%
COc1cc(-c2nnc(COc3ccc(Cl)cc3C)o2)cc(OC)c1OC | -27.9%
CCCCc1nc2n[nH]c(N)c2c2c1CCCC2 | -1.0%
N#C/C(=C\C=C\c1ccccc1)C(=O)Nc1ccccc1 | -9.5%
COc1ccc(NC(=O)CSc2nnc(-c3ccc(C)cc3)n2N)cc1 | -5.8%
O=C1CC(c2cccc(Oc3ccccc3)c2)NC(=O)N1 (stereo not drawn) | -6.5%
Brc1ccc2oc3c(N4CCOCC4)ncnc3c2c1 | ?
CC(=O)N1CCc2cc(Br)cc(S(=O)(=O)N3CCCCCC3)c21 | -5.0%

# The listing continues:
SMILES | HPGD block
O=C1C2CC=C(Cl)CC2C(=O)N1CCN1CCOCC1 (stereo not drawn) | -0.9%
c1ccc(-c2nc3cnccn3c2Nc2ccc3c(c2)OCCO3)cc1 | -18.5%
Cc1cc(=O)[nH]c(SCCCOc2ccc(F)cc2)n1 | -13.5%
COc1ccccc1OCC(=O)O | -1.1%&5.1%
CCc1nc(SCC(=O)Nc2ccc(C(=O)O)cc2)n[nH]1 | -6.0%
c1ccc(-n2nnc3ccccc32)nc1 | -14.2%
COc1ccc(S(=O)(=O)N2CCN(c3ncnc4c(-c5ccccc5)nsc34)CC2)cc1 | ?
Cc1ccc(C)c(N2CCN(C(=O)C3CCCN(S(=O)(=O)c4c(C)noc4C)C3)CC2)c1 (stereo not drawn) | -0.9%

# The results go on:
SMILES | HPGD block
CCCc1c(C)c2c(C)[nH]nc2oc1=O | ?
CN1CCN(Cc2nc3c(c(=O)n(C)c(=O)n3C)n2CCCc2ccccc2)CC1 | -23.6%
O=C(Nc1cccc(Cl)c1)O/N=C\c1ccncc1 | -4.7%
O=C(OCC#CCSc1nnc(-c2ccncc2)o1)c1cccs1 | -9.3%
CCCOc1ccc(C2C(=O)N(C3CCCCCC3)CC(=O)N2Cc2ccco2)cc1OC (stereo not drawn) | 0.5%
CC1=C(C)CS(=O)N(S(=O)(=O)c2ccccc2)C1 (stereo not drawn) | -3.9%
CC(/C=N/NC(=O)c1ccc(Br)cc1)=C\c1ccccc1 | -25.6%
Cc1occc1C(=O)NC(C)CCc1ccccc1 (stereo not drawn) | -4.5%

# Further compounds.
SMILES | HPGD block
O=C(c1cc(C(F)(F)F)cc(C(F)(F)F)c1)N1CCC2(CCN(Cc3ccccc3)CC2)CC1 | 0.0%
CCOc1cc(C2/C(=C(/O)c3ccc(OC(C)C)cc3)C(=O)C(=O)N2CCCOC)ccc1O (stereo not drawn) | ?
Cc1cc(C)nc(NC(=O)c2ccc([N+](=O)[O-])o2)n1 | 11.8%
CCN1/C(=C/c2ccc3ccccc3[n+]2CC)C=Cc2ccccc21 | -10.2%
Cc1cc(NC(=O)CC(CN(C)S(=O)(=O)c2ccccc2)c2ccccc2)no1 (stereo not drawn) | -1.9%
Cc1sc2ccccc2[n+]1CCC(=O)O | -3.0%
COC(=O)N1C(/C=C/C=C/c2ccc(OC)cc2)=Cc2ccccc2C1CC(C)=O (stereo not drawn) | -15.0%
O=C(COc1ccc(Cl)cc1Cl)N/N=C1\CCCc2ccccc21 | -8.5%

# Going on with the list.
SMILES | HPGD block
CCCC(=O)Nc1ccccc1NC(=O)CCC | -16.4%
O=C(O)c1ccc(-c2ccc(Cl)cc2Cl)o1 | -11.1%
O=C(COC(=O)CNC(=O)c1cccc([N+](=O)[O-])c1)Nc1cccc(S(=O)(=O)N2CCCCC2)c1 | -3.6%
Cc1nc2sc(C(c3ccccc3)N3CCN(C(=O)c4ccco4)CC3)c(O)n2n1 (stereo not drawn) | -17.1%
CCN(CC)S(=O)(=O)c1ccc(OC)c(NC(=O)CSc2cc(C)ccc2C)c1 | -6.9%
COc1ccccc1C(=O)Nc1cc2cc(Cl)ccc2oc1=O | ?
O=C(Cc1c(Cl)cccc1Cl)NCCc1ccc(Cl)cc1 | 0.0%
COC(=O)c1ccc(CSc2nc3ccccc3c(=O)n2CC(C)C)o1 | -2.7%

# Next part:
SMILES | HPGD block
CCOc1ccc(Br)cc1S(=O)(=O)N1CCCC1 | -8.5%
CCCN1CN(CCc2ccccc2)CNC1=S | -8.3%
CCN(CC)CCN1C(=O)c2oc3ccccc3c(=O)c2C1c1ccccc1 (stereo not drawn) | -19.2%
Cc1nc(NC(=O)C2CC3CCCC(C2)C3=O)sc1C (stereo not drawn) | -7.2%
COc1ccc(NC2=C(C)C(=O)CC2)cc1 | -10.5%
CCCc1nn2c(=O)cc(O)nc2s1 | 2.5%
CCOc1ccc(-n2c(C)c(C(C)=O)c(C(C)=O)c2C)cc1 | -10.0%
O=C(COc1ccccc1[N+](=O)[O-])N/N=C/c1cccc(OC(=O)c2ccc3c(c2)OCO3)c1 | -14.6%

# Additional records.
SMILES | HPGD block
Cc1ccc(NC(=O)c2ccc(Cn3cc(Br)cn3)o2)cc1 | -1.7%
COCCN(C(=O)CSc1nnc(C)n1-c1ccccc1)c1c(N)n(Cc2ccccc2)c(=O)[nH]c1=O | -9.3%
O=C(NCCN1CCOCC1)c1c(F)c(F)c(F)c(F)c1F | -11.3%
CC(=O)Nc1cccc(NC(=O)C2CC3CCC2C3)c1 (stereo not drawn) | -28.5%
O=C(O)CCCCCN1C(=O)CCC1=O | -1.0%
Cc1ccc(-c2nn3c(C)nnc3s2)cc1N | -9.0%
CSc1nc(C)c2c(n1)N(c1ccc(F)cc1)CC2 | -10.9%
OC(Cc1nc2ccccc2[nH]1)c1ccccc1Cl (stereo not drawn) | -17.2%

# Going on with the list.
SMILES | HPGD block
O=C(NC1=NCCS1)c1cc2ccccc2o1 | -21.0%
COc1ccc(CNC(=O)C2CCC(CNS(=O)(=O)c3cccc4nsnc34)CC2)cc1 (stereo not drawn) | -3.0%
O=C(CCCn1c(=S)[nH]c2cc3c(cc2c1=O)OCO3)NC1CC1 | -29.8%
CC(=O)N1CCC2(CCCN(c3ccccn3)C2)CC1 | ?
COc1ccc(N=C2SC(C(=O)O)CC(=O)N2Cc2ccc(OC)c(OC)c2)cc1 (stereo not drawn) | -4.0%
COC(=O)c1c(NC(=O)C2SC(=NC3CCCCC3)C(C(N)=O)=C2N)sc2c1CCCC2 (stereo not drawn) | -19.4%
O=C(CCC(=O)OCc1ccc(Br)cc1)Nc1ccccc1 | -15.0%
Cc1ccc(C2C3=C(CC(C)(C)CC3=O)Nc3n[nH]c(C)c32)cc1 (stereo not drawn) | ?

# Continued.
SMILES | HPGD block
COc1ncc2nc(-c3cc(F)cc(F)c3)c(=O)n(Cc3cccs3)c2n1 | -24.1%
C=CCOC(=O)C1=C(C)NC(SCC(=O)Nc2ccccc2)=C(C#N)C1c1ccco1 (stereo not drawn) | ?
CCOC(=O)c1cnc2ccc(C)cc2c1Sc1ccccc1C(=O)OC | -5.9%
CC(=O)Nc1ccc(S(=O)(=O)NCCSCc2ccco2)cc1 | -5.8%
CCNS(=O)(=O)c1ccc2c3c(cccc13)C(=O)N2 | ?
N/C(=N\OS(=O)(=O)c1cc(Cl)ccc1Cl)c1ccncc1 | -16.5%
O=C1CC(NCc2cccs2)C(=O)N1c1ccc(Cl)cc1 (stereo not drawn) | -13.8%
Cc1ccc(N(CC(=O)N/N=C/c2cccc(Br)c2)S(C)(=O)=O)cc1 | -10.8%

# The list continues:
SMILES | HPGD block
O=C(CCN1C(=O)c2ccccc2C1=O)Nc1ccncc1 | -11.3%
Cc1nonc1NC(=O)CSc1nnc(-c2ccoc2C)n1C | -5.0%
O=C(Nc1ccc2c(c1)OCO2)c1ccc(N2C(=O)c3ccccc3C2=O)cc1 | -15.6%
O=C(NCc1ccncc1)C(=O)NCC1OCCCN1S(=O)(=O)c1ccccc1 (stereo not drawn) | -4.6%
CCOc1ccc(N(CC(=O)Nc2ccccc2C)S(=O)(=O)c2c(C)noc2C)cc1 | -18.0%
O=C(COC(=O)c1ccc(S(=O)(=O)N2CCOCC2)cc1)Nc1nc(-c2ccccc2)cs1 | 81.9%[activator]
C=CCSc1n[nH]c2nc3c(c(=O)n12)C1(CCCC1)Cc1ccccc1-3 | ?
CC(C)CN(C(=O)CN1CCN(c2ccc(F)cc2)CC1)c1c(N)n(CC(C)C)c(=O)[nH]c1=O | -8.0%

# Next section
SMILES | HPGD block
CCCCCOc1ccc(NC(=O)CCCC(=O)O)cc1 | -2.6%
O=c1cc(O)c2c(=O)n(-c3ccccc3)c3ccccc3c2o1 | -27.3%
Cc1nc(N)sc1N=Nc1ccc(Br)cc1 | -10.1%
Cc1nc2ccccc2n1C1CC(=O)N(Cc2ccccc2)C1=O (stereo not drawn) | -6.8%
CC(=O)c1nc(N2C(=O)C3CC=C(C)CC3C2=O)sc1C (stereo not drawn) | -25.2%
Cc1ccc(C)c(NC(=O)CSc2ccc(-c3ccco3)nn2)c1 | -21.1%
Cc1nc(N2CCN(c3ccccc3)CC2)nc2c1C(=O)CC(c1ccccc1)C2 (stereo not drawn) | ?
CC(=O)Nc1ccccc1C(=O)C(=O)O | 0.4%&6.8%

# Molecules from the list above that have a nitro group on carbon:
SMILES | HPGD block
Cc1ccc(S(=O)(=O)N/N=C\c2ccc([N+](=O)[O-])o2)cc1 | -19.2%
Cc1cc(C)nc(NC(=O)c2ccc([N+](=O)[O-])o2)n1 | 11.8%
O=C(COC(=O)CNC(=O)c1cccc([N+](=O)[O-])c1)Nc1cccc(S(=O)(=O)N2CCCCC2)c1 | -3.6%
O=C(COc1ccccc1[N+](=O)[O-])N/N=C/c1cccc(OC(=O)c2ccc3c(c2)OCO3)c1 | -14.6%

# A portion of the library. The share of hits here may be higher or lower than overall.
